HSV replic up: increases HSV replication in cells | HSV replication augmentation in cells, fold increase | maximum fold increase | 220,000 compounds, 0.005% hits;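 active means peak rise of 1.5-fold or more in the series; inconclusive means self-fluorescent or not available for retest; tested in PC3 cells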;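 further: first round at 10 µM; read as green reporter fluorescence; hits show the peak of a series up to 25 µM; 1 = signal of infected wells without compound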
GALR2 agonist: activates the human galanin receptor 2. O43603. GALR2-expressing cells, agonist activation read-out. activation, %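 (tested at 5 µM)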. 140,000 compounds, 0.48% hits. AID 803;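 active means above mean plus 3 SD of all compounds, about 5% in these data, not always enough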;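 further: 0% = vehicle buffer wells and 100% = reference agonist at full effect; tested in CHO reporter cells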
PKD1 inh: inhibitors of human PKD1 kinase. Q15139. PKD1 kinase fluorescence polarization assay. inhibition, %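 (about 10 µM by stock and volumes)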. 200,000 compounds, 0.056% hits;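 active means inhibition of 50% or more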;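 further: controls were vehicle for no effect and a reference inhibitor for full effect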
Target sequence (Q15139 whole entry, looked up): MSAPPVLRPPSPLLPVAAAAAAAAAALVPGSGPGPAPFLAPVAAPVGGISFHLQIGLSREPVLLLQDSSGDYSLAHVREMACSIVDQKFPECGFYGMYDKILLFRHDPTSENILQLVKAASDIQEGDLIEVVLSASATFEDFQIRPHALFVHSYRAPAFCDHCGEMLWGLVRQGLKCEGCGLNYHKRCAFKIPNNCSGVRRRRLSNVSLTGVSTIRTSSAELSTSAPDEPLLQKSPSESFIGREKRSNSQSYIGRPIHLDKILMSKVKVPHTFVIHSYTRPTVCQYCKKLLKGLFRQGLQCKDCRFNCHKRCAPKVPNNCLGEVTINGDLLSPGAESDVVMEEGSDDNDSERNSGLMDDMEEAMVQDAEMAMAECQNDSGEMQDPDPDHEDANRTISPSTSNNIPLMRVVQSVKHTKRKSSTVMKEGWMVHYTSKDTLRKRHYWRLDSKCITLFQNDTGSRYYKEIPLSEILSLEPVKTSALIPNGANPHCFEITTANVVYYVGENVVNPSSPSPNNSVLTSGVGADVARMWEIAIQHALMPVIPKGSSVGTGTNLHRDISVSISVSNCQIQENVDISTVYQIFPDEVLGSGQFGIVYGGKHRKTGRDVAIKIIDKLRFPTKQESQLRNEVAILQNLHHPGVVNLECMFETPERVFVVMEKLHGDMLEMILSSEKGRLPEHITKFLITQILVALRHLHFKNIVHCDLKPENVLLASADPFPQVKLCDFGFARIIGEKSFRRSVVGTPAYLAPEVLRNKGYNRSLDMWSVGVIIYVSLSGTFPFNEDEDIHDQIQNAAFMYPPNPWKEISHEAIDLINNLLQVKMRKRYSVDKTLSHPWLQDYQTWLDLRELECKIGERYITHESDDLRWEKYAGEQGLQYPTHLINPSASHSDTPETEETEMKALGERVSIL
INS promoter inh: TRM-6 insulin promoter activity inhibition; AID 1273; 130,000 compounds, 0.9% hits; TRM-6 cells (human fetal islet line), insulin promoter-eGFP reporter, imaging; reporter expression induced with tamoxifen; inhibition, % at 2 µM;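 active means inhibition above the mean plus 3 SD, with well images judged a real hit on visual review, cut at about 60% in these data, passing the limit was not always enough; inconclusive means inhibition over the cutoff but images rejected on review; inactive means inhibition not above the cutoff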
RGS16-Gao: regulators of human RGS16-Galphao interaction | O15492+P09471 | bead-based flow cytometry RGS16-Galphao binding, fluorescence; actives lie on both sides | binding response (% of control), % at 10 µM | 220,000 compounds, 0.38% hits | AID 1441;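 active means below 25% or above 175%, edge rows of some plates excepted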;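 further: Galphao activated by GDP with aluminum fluoride before binding; 100% = wells without compound and 0% = beads without RGS; some results beyond the cut were filed as inactive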
INS promoter inh cell count: further read-out of INS promoter inh, marked with its call; normalized cell count, %; measured here: cell count, toxicity; reference of the scale not given here;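 cells exposed to compound for 48 h; stained nuclei by imaging scaled within each plate; lower means fewer cells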
HSV replic up primary fold: further read-out of HSV replic up, marked with its call; fold increase; compound at 10 µM; measured here: primary screen fold increase 10 uM; tested in PC3 cells;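 GFP signal in the first replicate; 1 = infected wells without compound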
* marks the source's active call; other numbers are inactive results; i = inactive; ? = inconclusive; . = not tested or not shown.

The first 15 records (preview)
Each structure is followed by: GALR2 agonist	INS promoter inh	RGS16-Gao	INS promoter inh cell count	HSV replic up primary fold	HSV replic up	PKD1 inh
1	Cc1cc(/C=C2/C(=O)NC(=O)N(Cc3ccco3)C2=O)c(C)n1-c1ccc(C(=O)O)cc1
 : .	0.0	99.3	113.6	1.05	i	-5.1
2	CNC(=S)N(C)CCc1cc2c(c(OC)c1/C=C1/C(=O)NC(=O)N(C)C1=O)OCO2
 : .	.	103.5	.	1.22	i	.
3	Cc1ccc(S(=O)(=O)NCCC(=O)Nc2ccc(Cl)cc2C(=O)c2ccccc2)cc1
 : -0.7	-39.3	93.5	106.3	0.9	i	-1.1
4	CCN(CC)Cc1c[nH]c2ccccc12
 : -0.1	-21.4	106.7	114.1	0.86	i	5.9
5	C=CCOC(=O)C1=C(C)OC(N)=C(C#N)C12C(=O)N(CN1CCOCC1)c1ccccc12 (stereo not drawn)
 : -1.9	.	96.3	.	1.04	i	13.6
6	COc1cc(OC)c(OC)cc1CNCCc1ccc(OC)c(OC)c1
 : -0.3	.	105.0	.	0.91	i	-3.5
7	Cc1ccc(N2Cc3ccccc3C2=N)cc1[N+](=O)[O-]
 : .	20.0	108.1	133.9	0.92	i	-3.4
8	O=C(O)CP(=O)(O)c1ccc(Cl)cc1
 : -1.2	50.0	109.9	88.0	1.04	i	-8.7
9	COc1ccc(C2C(C(=O)N3CCC4(CC3)OCCO4)CC(=O)N2c2ccc(OC)cc2)cc1 (stereo not drawn)
 : 1.3	0.0	101.1	105.8	1.02	i	-3.4
10	CC1CCC(NCCc2ccc3c(c2)OCO3)CC1 (stereo not drawn)
 : -3.6	-38.7	105.7	99.4	0.7	i	-2.8
11	CC(=O)Nc1ccccc1C(=O)OCc1ccccc1F
 : .	.	95.7	.	1.02	i	-4.1
12	Nc1cc(N2CCNCC2)c([N+](=O)[O-])cc1Cl
 : -1.1	31.2	103.6	61.0	0.94	i	-4.0
13	Cc1ccc2cc(C=C(C#N)C#N)c(Cl)nc2c1
 : -1.2	.	43.2	.	.	?	-8.3
14	CC(=NCCN1CCOCC1)c1c(O)n(-c2ccccc2C)c(=O)[nH]c1=O
 : -1.6	35.3	3.0*	42.4	0.89	i	-15.0
15	CCC(=NCCC(c1ccccc1)c1ccccc1)c1c(O)n(C)c(=O)n(C)c1=O
 : -1.0	.	97.0	.	1.16	i	-2.3

Main list, from the first entry:
Each structure is followed by: GALR2 agonist	INS promoter inh	RGS16-Gao	INS promoter inh cell count	HSV replic up primary fold	HSV replic up	PKD1 inh
1	Cc1cc(/C=C2/C(=O)NC(=O)N(Cc3ccco3)C2=O)c(C)n1-c1ccc(C(=O)O)cc1
 : .	0.0	99.3	113.6	1.05	i	-5.1
2	CNC(=S)N(C)CCc1cc2c(c(OC)c1/C=C1/C(=O)NC(=O)N(C)C1=O)OCO2
 : .	.	103.5	.	1.22	i	.
3	Cc1ccc(S(=O)(=O)NCCC(=O)Nc2ccc(Cl)cc2C(=O)c2ccccc2)cc1
 : -0.7	-39.3	93.5	106.3	0.9	i	-1.1
4	CCN(CC)Cc1c[nH]c2ccccc12
 : -0.1	-21.4	106.7	114.1	0.86	i	5.9
5	C=CCOC(=O)C1=C(C)OC(N)=C(C#N)C12C(=O)N(CN1CCOCC1)c1ccccc12 (stereo not drawn)
 : -1.9	.	96.3	.	1.04	i	13.6
6	COc1cc(OC)c(OC)cc1CNCCc1ccc(OC)c(OC)c1
 : -0.3	.	105.0	.	0.91	i	-3.5
7	Cc1ccc(N2Cc3ccccc3C2=N)cc1[N+](=O)[O-]
 : .	20.0	108.1	133.9	0.92	i	-3.4
8	O=C(O)CP(=O)(O)c1ccc(Cl)cc1
 : -1.2	50.0	109.9	88.0	1.04	i	-8.7
9	COc1ccc(C2C(C(=O)N3CCC4(CC3)OCCO4)CC(=O)N2c2ccc(OC)cc2)cc1 (stereo not drawn)
 : 1.3	0.0	101.1	105.8	1.02	i	-3.4
10	CC1CCC(NCCc2ccc3c(c2)OCO3)CC1 (stereo not drawn)
 : -3.6	-38.7	105.7	99.4	0.7	i	-2.8
11	CC(=O)Nc1ccccc1C(=O)OCc1ccccc1F
 : .	.	95.7	.	1.02	i	-4.1
12	Nc1cc(N2CCNCC2)c([N+](=O)[O-])cc1Cl
 : -1.1	31.2	103.6	61.0	0.94	i	-4.0
13	Cc1ccc2cc(C=C(C#N)C#N)c(Cl)nc2c1
 : -1.2	.	43.2	.	.	?	-8.3
14	CC(=NCCN1CCOCC1)c1c(O)n(-c2ccccc2C)c(=O)[nH]c1=O
 : -1.6	35.3	3.0*	42.4	0.89	i	-15.0
15	CCC(=NCCC(c1ccccc1)c1ccccc1)c1c(O)n(C)c(=O)n(C)c1=O
 : -1.0	.	97.0	.	1.16	i	-2.3
16	Cc1cc(C)n2c(Br)c(CN3CC4CC(C3)c3cccc(=O)n3C4)nc2n1 (stereo not drawn)
 : 0.1	-41.5	110.2	112.2	0.91	i	-6.5
17	O=C(c1ccco1)c1cn(Cc2ccccc2Cl)c2ccccc12
 : -0.9	-27.6	102.4	188.0	1.07	i	3.5
18	CC(=Nc1c(C)n(C)n(-c2ccccc2)c1=O)c1c(O)n(Cc2ccccc2)c(=O)[nH]c1=O
 : -0.3	0.0	99.7	144.7	1.09	i	-5.3
19	COc1ccc(-n2c(/C=C3/C(=O)Nc4ccccc43)nc3ccccc3c2=O)cc1
 : .	12.5	104.7	140.5	0.82	i	-5.7
20	C[C@@H]1CC2(CCCC[N+]2(C)C)C[C@H]1C
 : .	.	99.9	.	1.03	i	6.2
21	CNC(=O)c1cccn(Cc2cccc(C(F)(F)F)c2)c1=O
 : .	.	100.7	.	0.96	i	0.8
22	COc1ccc(-c2nc3ccccc3c(=O)n2-c2cccnc2)cc1
 : -1.9	.	102.8	.	0.86	i	8.4
23	COCCCN1CCN(c2nnc3n2-c2sc(Br)cc2C(c2ccccc2Cl)=NC3)CC1
 : -1.3	-75.7	98.2	42.6	.	.	6.0
24	CCn1cc(CN2CCCC(C(=O)c3cccc(OC)c3)C2)c(C)n1 (stereo not drawn)
 : .	-52.2	107.8	97.1	0.97	i	-5.2
25	CCCNS(=O)(=O)c1ccc(OCC(=O)N2CCN(Cc3ccccc3)CC2)cc1
 : -2.1	-72.6	103.1	115.2	0.99	i	4.8
26	C[C@]12CCC(=O)C=C1CC[C@@H]1[C@@H]2C(=O)C[C@]2(C)C(=O)CC[C@@H]12
 : -1.8	-9.1	99.6	117.5	0.81	i	-13.0
27	CCn1c(=O)n(CC)c2cc([N+](=O)[O-])c(N3CCNCC3)cc21
 : .	58.3	100.5	80.2	1.05	i	12.2
28	C=CCn1c(O)c(/C(C)=N/N2CCCCC2)c(=O)[nH]c1=O
 : .	.	96.4	.	0.92	i	.
29	CN1C2CCC1CC(OC(=O)c1ccc(Cl)cc1)C2 (stereo not drawn)
 : -2.1	-18.8	66.8	87.8	0.84	i	2.0
30	COCc1cc(OC(=O)N(C)C)nc(-c2ccccc2)n1
 : .	.	108.1	.	0.94	i	.

Only part of the results is shown (hit frequency here may not be typical).
